MenB inh – inhibitors of Mycobacterium tuberculosis MenB enzyme. P9WNP5. MenB enzyme assay, absorbance read-out; some hits fall short of the stated cut. inhibition, %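 (about 12 µg/mL by stock and volumes)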. actives 0.43% (n = 100,000). AID 540299;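 active = mean of two replicates above 30%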;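 also: 0% = no compound and 100% = wells with inactive enzyme; the first replicate is given; strong numbers were not always called active; inactives centre near -10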
Target sequence (P9WNP5 whole entry, looked up): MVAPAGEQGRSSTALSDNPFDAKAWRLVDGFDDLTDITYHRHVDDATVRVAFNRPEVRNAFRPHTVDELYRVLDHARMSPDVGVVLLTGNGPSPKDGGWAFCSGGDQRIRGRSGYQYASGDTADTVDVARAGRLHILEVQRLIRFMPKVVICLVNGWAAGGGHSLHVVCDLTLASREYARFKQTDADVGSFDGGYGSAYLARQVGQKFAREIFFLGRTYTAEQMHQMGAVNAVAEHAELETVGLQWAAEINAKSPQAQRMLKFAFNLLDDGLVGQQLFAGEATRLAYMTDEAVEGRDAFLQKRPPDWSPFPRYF
MbtI inh – inhibitors of Mycobacterium tuberculosis siderophore enzyme MbtI; purified MbtI enzyme, fluorescence intensity read-out; inhibition, %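 (about 17 µg/mL by stock and volumes)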; actives 0.89% (n = 100,000); AID 493033;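 active = above 50% in both replicates, above 80% if mildly self-fluorescent; inactive = the rest, strongly fluorescent compounds included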;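 also: 0% = mean of negative and 100% = mean of positive controls; one replicate is shown; some compounds called inactive have numbers as strong as hits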
Target sequence (P9WFX0 whole entry, looked up): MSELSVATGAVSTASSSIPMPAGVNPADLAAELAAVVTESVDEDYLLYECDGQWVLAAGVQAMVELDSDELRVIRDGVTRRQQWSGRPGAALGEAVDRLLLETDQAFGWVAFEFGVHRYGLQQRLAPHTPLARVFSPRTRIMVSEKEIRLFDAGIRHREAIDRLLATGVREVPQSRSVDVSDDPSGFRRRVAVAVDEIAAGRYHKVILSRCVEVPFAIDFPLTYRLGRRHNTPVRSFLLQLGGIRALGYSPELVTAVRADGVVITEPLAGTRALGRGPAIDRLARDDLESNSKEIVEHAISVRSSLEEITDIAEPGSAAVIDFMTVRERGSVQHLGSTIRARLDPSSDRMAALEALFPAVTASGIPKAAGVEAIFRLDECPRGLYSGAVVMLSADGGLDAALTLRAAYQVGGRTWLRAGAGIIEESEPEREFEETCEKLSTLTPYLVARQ
PV pol inh – inhibitors of poliovirus RNA polymerase binding and polymerization; poliovirus polymerase elongation, fluorescence polarization; stronger effect = lower value; actives 0.66% (n = 150,000); AID 588519; % elongation, % (compound at 16.7 µg/mL); P03300; in the data active = % elongation below about 90%; also: some results filed as inactive read as strong as hits
PV pol inh intensity – recorded beside PV pol inh, whose call it bears; % elongation; measured here: total intensity read-out; formula for this scale not given here;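 total fluorescence in place of polarization; lower means less elongation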
Starred values were filed as active, the others as inactive; . = not tested or not shown; & = joins results of further samples.

SMILES | MenB inh | MbtI inh | PV pol inh | PV pol inh intensity
COc1ccc(CN2C(=O)CC(Cc3ccccc3)C2=O)cc1OC (stereo unspecified) | 1 | 0 | 102 | 101
CCCCN=Cc1c(O)n(-c2ccc(Cl)cc2)c(=O)[nH]c1=O | -60 | 22 | 106 | 103
O=C(NCc1ccco1)c1cc(-c2ccccc2)on1 | -18 | -5 | 102 | 103
CCC(Sc1nc2ccncc2[nH]1)C(=O)NCCc1ccccc1 (stereo unspecified) | -13 | 3 | 104 | 103
CC(C(=O)O)n1cc(Cl)cn1 (stereo unspecified) | -8 | -4 | 102 | 102
O=S(=O)(c1ccc(N2CCCC2)nc1)N1CCCC1 | -17 | -40 | 106 | 112
Cc1nc2ccccc2c(=O)n1-c1cccc(C(F)(F)F)c1 | . | -7 | 101 | 103
COc1ccc(C(=O)Nc2ccccc2)cc1S(=O)(=O)N1CCC(C)CC1 | -11 | -21 | 102 | 103
O=c1oc2cc(O)ccc2cc1-c1nc2ccccc2s1 | -13 | 24 | 71 | 192
Cn1cc(S(=O)(=O)N2CCCC2)cc1C(=O)N1CCN(C2CCCCC2)CC1 | -15 | -14 | 103 | 103
O=C(CSc1nc2ccccc2o1)Nc1ccccn1 | -1 | . | 104 | 108
COc1cc(SC)ccc1C(=O)Nc1cccnc1 | -27 | 4 | 102 | 107

Part of the list above, set out differently.
molecule	MenB inh	MbtI inh	PV pol inh	PV pol inh intensity
O=C(NCc1ccco1)c1cc(-c2ccccc2)on1	-18	-5	102	103
Cc1nc2ccccc2c(=O)n1-c1cccc(C(F)(F)F)c1	.	-7	101	103
COc1ccc(CN2C(=O)CC(Cc3ccccc3)C2=O)cc1OC (stereo unspecified)	1	0	102	101
Cn1cc(S(=O)(=O)N2CCCC2)cc1C(=O)N1CCN(C2CCCCC2)CC1	-15	-14	103	103
CC(C(=O)O)n1cc(Cl)cn1 (stereo unspecified)	-8	-4	102	102
CCC(Sc1nc2ccncc2[nH]1)C(=O)NCCc1ccccc1 (stereo unspecified)	-13	3	104	103
O=c1oc2cc(O)ccc2cc1-c1nc2ccccc2s1	-13	24	71	192

Next section
SMILES | MenB inh | MbtI inh | PV pol inh | PV pol inh intensity
COC(=O)c1nnn(-c2nonc2N)c1CSC#N | 5 | 74* | 102 | 106
COc1ccc(C(=O)Nc2ccc(NC(=O)c3ccco3)cc2)cc1OC | -6 | 68 | 101 | 105
CC(C)(C)c1ccc(/C=C/C(=O)NCCCn2ccnc2)cc1 | -16 | -24 | 104 | 107
O=C(CSc1ncnc2sc3c(c12)CCCC3)N1CCCCC1 | 1 | . | 100 | 94
CC(C)C(OC(=O)c1ccccc1)c1nccc2ccccc12 (stereo unspecified) | -8 | -14 | 108 | 112
CCOC(=O)c1sc2nccc(Nc3ccccc3)c2c1N | -33 | -383 | 99 | 104
COc1cc(CNCc2nnc3ccccn23)cc(I)c1O | 0 | 12 | 98 | 95
N#CSC(C#N)Cc1ccccc1 (stereo unspecified) | 19 | 83* | 98 | 100
CC(=O)Nc1ccc(C(=O)OCC(=O)N2CCc3ccccc32)cc1 | . | 3 | 99 | 96
CC(C)(C)Sc1cccc2ccccc12 | -10 | . | 100 | 108
Cc1cc(NC(=O)c2cc(-c3ccc4c(c3)OCO4)on2)n(-c2ccccc2)n1 | -9 | 9 | 101 | 106
COc1ccc(OC)c(C(c2c(O)[nH]c(=O)[nH]c2=O)N(Cc2ccccc2)C(C)C)c1 (stereo unspecified) | -36 | 0 | 105 | 100
COc1cc(C(=O)O)cc2c1OC(C)C2 (stereo unspecified) | -16 | -2 | 104 | 107
O=C(NCc1ccc2c(c1)OCO2)c1ccccc1Cl | -18 | 3 | 100 | 98
O=C1C2C(C(=O)N1c1ccccc1)N1CCCN1C2c1ccccc1 (stereo unspecified) | -9 | -14 | 102 | 104
O=C1OC(c2ccc(O)cc2)(c2ccc(O)cc2)c2ccccc21 | -6 | -18 | 100 | 101
CCc1ccc(NC(=O)c2ccc(N3CCCS3(=O)=O)cc2)cc1 | -7 | 13 | 104 | 98
CCc1ccc2nc3sc(C(N)=O)c(N)c3cc2c1 | -14 | 19 | 103 | 109
CCCC12CN3CC(CCC)(CN(C1)C3c1ccccc1O)C2=O (stereo unspecified) | 18 | 7 | 102 | 100
O=C(CNCC1CCCO1)N1CCCC1 (stereo unspecified) | -4 | -5 | 101 | 103
O=C(O)CN(CC(=O)O)c1ccc(Cl)cc1 | 0 | . | 101 | 95
COc1cccc(C2NC(C(=O)O)Cc3c2[nH]c2ccccc32)c1 (stereo unspecified) | 5 | 3 | 90 | 160
COc1ccc(C)cc1CC(=O)O | -6 | -2 | 102 | 100
CC(NC(=O)CSc1ncnc2ccccc12)C1CC2CCC1C2 (stereo unspecified) | . | -6 | 100 | 106
OC(CNCCNc1nccc(C(F)(F)F)n1)c1ccccc1 (stereo unspecified) | 12 | 6 | 103 | 99
CC(=NCC1CCNCC1)C1=C(O)CC(C)(C)CC1=O | -18 | 10 | 102 | 98
COCCN1C(=O)C=CC1=O | . | 62* | 100 | 102
CC(NC(=O)CSc1ccccc1C(=O)O)C1CC2CCC1C2 (stereo unspecified) | . | 2 | 96 | 100
COc1ccc(N(C(C)=O)S(=O)(=O)c2ccc(C)cc2)cc1 | -12 | . | 103 | 96
CCOc1ccc(Br)cc1C(=O)Nc1c[nH]c(=O)[nH]c1=O | -10 | . | 104 | 103
CC1Sc2cc(-c3ccc(Br)cc3)cn2C1=O (stereo unspecified) | -8 | 3 | 112 | 109
CCN(CC1COc2ccccc2O1)S(=O)(=O)c1cccs1 (stereo unspecified) | -1 | 0 | 103 | 111
CC1c2cccn2CCN1S(=O)(=O)c1ccccc1 (stereo unspecified) | 4 | 25 | 99 | 101
O=C(Nc1ccccc1)NC1CS(=O)(=O)CC1O (stereo unspecified) | 14 | 4 | 102 | 100
CC[N+](C)(CC)CCC[n+]1c(-c2ccccc2)c2cc(N)ccc2c2ccc(N)cc21 | 22&-6 | 13&10 | 65* | 39*
CCOC(=O)c1ccc(-n2c(N)c(C(=O)NCC3CCCO3)sc2=S)cc1 (stereo unspecified) | -13 | 92* | 96 | 97

Profiles as entered above. Order of values: MenB inh | MbtI inh | PV pol inh | PV pol inh intensity
COCCN1C(=O)C=CC1=O is listed as . | 62* | 100 | 102
CC[N+](C)(CC)CCC[n+]1c(-c2ccccc2)c2cc(N)ccc2c2ccc(N)cc21 is listed as 22&-6 | 13&10 | 65* | 39*

(continued)
SMILES | MenB inh | MbtI inh | PV pol inh | PV pol inh intensity
Clc1cccc(-c2cnc(CSc3nnc(C4CC4)n3-c3ccccc3)o2)c1 | -9 | -17 | 110 | 110
Cc1ccc(CNc2oc(C)nc2C#N)cc1 | -9 | . | 106 | 96
CCN(CCC#N)c1ccc(/C=C(\C#N)C(=O)NC(C)C)c(C)c1 | -494 | 18 | 125 | 117
COc1ccc2oc(C(=O)NCCC(C)C)c(C)c2c1 | -28 | 144 | 102 | 88
CCC(Sc1nc2cc(OC)c(OC)cc2c2nc(CCn3nc(C)cc3C)nn12)C(=O)NCc1ccco1 (stereo unspecified) | -3 | 8 | 99 | 104
O=C(O)/C(=C\c1ccc(-c2ccc(F)cc2)o1)c1ccccc1 | 0 | 55 | 127 | 139
Cc1ccc(CN2CCN(CC(=O)N3CCC4(CC3)OCCO4)C2=O)cc1 | 5 | -1 | 103 | 97
COC(=O)C1=C(C)N(c2ccc(C(C)C)cc2)C(=O)C1 | 0 | . | 103 | 114
CC(/C=N/N1C(=O)c2ccccc2C1=O)c1ccccc1 (stereo unspecified) | 8 | -7 | 102 | 107
c1ccc(CNCc2ccc3c(c2)OCCO3)cc1 | -25 | -6 | 106 | 103
CCOC(=O)c1sc2ncn(/N=C/c3cccnc3)c(=O)c2c1C | 12 | -4 | 99 | 103
O=C(Cn1nc(C(F)(F)F)c2c1CCC2)N1CCCC1 | -25 | . | 120 | 119
Cc1ccc(Cn2c(=O)c3ccccc3n3c(SCC#N)nnc23)cc1 | -10 | -1 | 102 | 107
CC1=C(C(=O)OC(C)C)C(c2cn(-c3ccccc3)nc2-c2ccc(OC(C)C)cc2)NC(=O)N1 (stereo unspecified) | -17 | -1 | 101 | 103
COc1ccc(C2CC(c3ccc4ccccc4c3)=NN2C)cc1 (stereo unspecified) | -42 | 107 | 105 | 111
N#CSc1ccc(N2CCCCC2)cc1 | -11 | 21 | . | .
CC(=O)OCC(=O)[C@@]1(O)[C@H](OC(C)=O)CC2C3CCC4=CC(=O)C=C[C@]4(C)[C@@]3(F)[C@@H](O)C[C@@]21C (stereo partly specified) | 1 | -25 | 98 | 102
Cc1noc(C)c1S(=O)(=O)N1c2ccccc2CC1C (stereo unspecified) | -15 | -9 | 102 | 108
COC(=O)CN1C(c2ccccc2)=Nc2ccc(C)cc2C1c1ccccc1 (stereo unspecified) | -12 | -11 | 102 | 106
CC(C(=O)Nc1ccc(F)cc1)n1nnc2ccccc2c1=O (stereo unspecified) | -10 | -13 | 100 | 101
Cc1ccc(-c2noc(CCC(=O)NCCCN3CCN(c4ccc(F)cc4)CC3)n2)cc1 | -31 | -10 | 101 | 105
C=C(C)Cn1c(CCNC(=O)c2cc(OC)c(OC)c(OC)c2)nc2ccccc21 | -17 | -2 | 102 | 104
O=C(CCCN1C(=O)C2C3C=CC(C3)C2C1=O)N1CCN(c2ccccc2F)CC1 (stereo unspecified) | 3 | 25 | 99 | 100
NS(=O)(=O)c1ccc(NC(=O)CS)cc1 | -94 | 76* | 99 | 100
O=C(COC(=O)Cc1c[nH]c2ccccc12)Nc1ccc(S(=O)(=O)N2CCCC2)cc1 | 0 | 2 | 101 | 98
CCNC(=O)c1cccc(N)c1 | -11 | 6 | 100 | 102
CCn1nc(C(C)C(=O)O)c2ccccc2c1=O (stereo unspecified) | -9 | -15 | 102 | 99
O=C(Cn1ncc2ccc(Cl)cc21)N1CCCCC1 | -19 | 0 | 101 | 103
CC(=O)N1N=C2c3ccccc3CCC2C1c1cccs1 (stereo unspecified) | 1 | 0 | 112 | 113
COC(=O)c1cc(C(=O)OC)c(C(=O)OC)cc1C(=O)OC | -9 | . | 104 | 109
COc1ccc(NC(=O)c2cccnc2N2CCCC2)cc1 | 6 | -2 | 101 | 103
CC(=O)N1c2ccc(S(=O)(=O)N3CCC(C(=O)N4CCN(c5cc(Cl)ccc5C)CC4)CC3)cc2CC1C (stereo unspecified) | -7 | -26 | 102 | 104
CCCCCc1ccc(-c2ccc(C(=O)O)cc2)nc1 | -4 | 10 | 102 | 104
CCN(CC)c1ccc2nnc(CCC(=O)N3CCCC3)n2n1 | -22 | 24 | 100 | 101
COC(=O)C(O)(CC(=O)Nc1ccc(OC(F)(F)F)cc1)C(F)(F)F (stereo unspecified) | 0 | -9 | 97 | 104
Cc1cc(Nc2ccccc2)n(-c2ccc(C(=O)O)cc2)n1 | -26 | 13 | 112 | 114
CCCCS(=O)(=O)Nc1ccc(C)cn1 | 0 | 101 | 83* | 90*
CCc1ccc(CN2C(=O)c3ccccc3C2C(=O)NCC2CCCO2)cc1 (stereo unspecified) | -11 | -10 | 100 | 99
O=C(O)c1cccc(NCc2ccc(Cl)cc2)c1 | -3 | 102 | 103 | 108
Cc1cn(CCOc2ccc(Cl)cc2)c(=O)[nH]c1=O | -1 | . | 103 | 111
O=C(Cc1ccccc1)NN1C(=O)CSC1=S | -120 | -1 | 98 | 102
O=C(O)COc1ccccc1C=C1C(=O)c2ccccc2C1=O | -132 | -5 | 104 | 104

2 of the compounds above, field by field:
O=C(Cn1nc(C(F)(F)F)c2c1CCC2)N1CCCC1
  MenB inh: -25	MbtI inh: .	PV pol inh: 120	PV pol inh intensity: 119

Cc1ccc(Cn2c(=O)c3ccccc3n3c(SCC#N)nnc23)cc1
  MenB inh: -10	MbtI inh: -1	PV pol inh: 102	PV pol inh intensity: 107
